Source: PubChem BioAssay (National Center for Advancing Translational Sciences (NCATS))
VDR inhibitor: vitamin D3 receptor (human) inhibition; Potency, µM, for the others: max response, negative = inhibition, actives largely listed as inhibitors; VDR-SRC2-3 peptide fluorescence polarization, 2 h; P11473; 400,000 compounds, 0.93% hits; active = well fitted inhibition curve with a large enough effect; inconclusive = small, poorly fitted or top-dose-only effect, or another doubt; inactive = no such curve, though single readings can be large or run the other way; note: series mostly up to about 120 µM
Target sequence (P11473 whole entry, looked up): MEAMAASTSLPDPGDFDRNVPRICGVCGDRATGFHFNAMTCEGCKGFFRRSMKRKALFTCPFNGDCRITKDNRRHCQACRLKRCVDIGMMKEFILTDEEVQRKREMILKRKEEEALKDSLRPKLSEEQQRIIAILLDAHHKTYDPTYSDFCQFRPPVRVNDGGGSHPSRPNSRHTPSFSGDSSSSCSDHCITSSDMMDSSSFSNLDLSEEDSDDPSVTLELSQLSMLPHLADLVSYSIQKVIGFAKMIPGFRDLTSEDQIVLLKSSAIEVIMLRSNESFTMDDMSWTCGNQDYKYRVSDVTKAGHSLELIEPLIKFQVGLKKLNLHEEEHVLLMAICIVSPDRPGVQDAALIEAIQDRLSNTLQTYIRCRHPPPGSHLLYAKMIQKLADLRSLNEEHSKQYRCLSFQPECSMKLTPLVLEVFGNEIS
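Reagent solutions, kept cold and dark, are dispensed first; compounds are then pinned in at 23 nl, plates briefly spun, and incubated 2 h at ambient temperature. Inhibition of VDR–SRC2-3 peptide binding is read by fluorescence polarization.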
* = called active by the depositor; ? = inconclusive; & = joins results of further samples. % is set by controls: 0 for no effect and ±100 for the full control effect; potency is the fitted concentration of half-maximal effect. Not all compounds are listed; count on the stated rates, not on these rows.

nr	SMILES	VDR inhibitor
1	COc1ccc(NC(=O)c2cc(-c3ccccc3Cl)on2)cc1	-4%
2	COC(=O)c1ccc(S(=O)(=O)N2CCC(O)CC2)n1C	8%
3	CC[C@H](C)[C@H](NC(=O)[C@H](CCC(=O)O)NC(=O)CNC(=O)[C@@H](NC(=O)[C@@H]1CCCN1C(=O)[C@@H](NC(=O)[C@@H]1CCCN1C(=O)[C@@H]1CCCN1C(=O)[C@H](CC(N)=O)NC(=O)[C@H](CC(N)=O)NC(=O)[C@@H](NC(=O)[C@H](CCSC)NC(=O)[C@H](Cc1c[nH]c2ccccc12)NC(=O)CNC(=O)[C@@H](NC(=O)[C@H](CCC(N)=O)NC(=O)[C@@H](N)CCC(=O)O)[C@@H](C)CC)[C@@H](C)O)[C@@H](C)CC)C(C)C)C(=O)O	1%
4	Cc1cc(N=Cc2cc(Br)ccc2O)no1	7%
5	O=C(O)Cn1nnn(-c2ccccc2)c1=S	-2%
6	CCN(CC)C(=O)[C@H]1C[C@H](CC(=O)NCC23CC4CC(CC(C4)C2)C3)C(=O)N2CCc3c([nH]c4cc(-c5ccco5)ccc34)[C@]12C	5%
7	Cc1ccc(S(=O)(=O)N2CCC(N3CCC(C)CC3)CC2)cc1	0%
8	O=C(NCCCN1CCCC1)c1ccc2c(c1)N(Cc1ccccc1)CCS2	-10%
9	O=C(NCc1ccc2c(c1)OCO2)C1CCCN(C(=O)c2ccc(Cl)cc2)C1 (configuration not stated)	-1%
10	CC[C@]12c3[nH]c4cc(-c5ccco5)ccc4c3CCN1C(=O)[C@@H](CC(=O)NCc1ccco1)C[C@@H]2C(=O)N1CCN(C(=O)C2CC2)CC1	?
11	CCOC(=O)CNC(=O)N1CCCC(CNS(=O)(=O)c2cccs2)C1 (configuration not stated)	9%
12	CCN1C(=O)/C(=C\c2nc3ccccc3c(=O)n2-c2ccccc2)c2ccccc21	-17%
13	CCCCCc1nnc(NC(=O)NS(=O)(=O)c2ccc(C)cc2)s1	-18%
14	CC(C)(C)C(=O)/C=C1\NC(=O)CS1	-5%
15	COc1ccccc1N1CCN(C(=O)/C=C/c2ccc(C)cc2)CC1	-11%
16	CCCCOc1ccc(Cn2c(=O)sc3ccccc32)cc1	-11%
17	COc1ccc(OC)c(CNC(=O)CCS(=O)(=O)c2ccc3c(c2)oc(=O)n3C)c1	11%&10%
18	NS(=O)(=O)c1cccc(C(=O)NC2CCSc3ccccc32)c1 (configuration not stated)	3%
19	CCC(=O)Nc1ccc(-c2ccc(N3CCN(C)CC3)nn2)cc1	3%
20	CCOC(=O)[C@@H]1[C@H]2COc3ccccc3[C@@H]2N2C(=O)N(c3cccc(F)c3)C(=O)[C@@]12C	-7%

Entries 4–17, reprinted for reference:
nr	SMILES	VDR inhibitor
4	Cc1cc(N=Cc2cc(Br)ccc2O)no1	7%
5	O=C(O)Cn1nnn(-c2ccccc2)c1=S	-2%
6	CCN(CC)C(=O)[C@H]1C[C@H](CC(=O)NCC23CC4CC(CC(C4)C2)C3)C(=O)N2CCc3c([nH]c4cc(-c5ccco5)ccc34)[C@]12C	5%
7	Cc1ccc(S(=O)(=O)N2CCC(N3CCC(C)CC3)CC2)cc1	0%
8	O=C(NCCCN1CCCC1)c1ccc2c(c1)N(Cc1ccccc1)CCS2	-10%
9	O=C(NCc1ccc2c(c1)OCO2)C1CCCN(C(=O)c2ccc(Cl)cc2)C1 (configuration not stated)	-1%
10	CC[C@]12c3[nH]c4cc(-c5ccco5)ccc4c3CCN1C(=O)[C@@H](CC(=O)NCc1ccco1)C[C@@H]2C(=O)N1CCN(C(=O)C2CC2)CC1	?
11	CCOC(=O)CNC(=O)N1CCCC(CNS(=O)(=O)c2cccs2)C1 (configuration not stated)	9%
12	CCN1C(=O)/C(=C\c2nc3ccccc3c(=O)n2-c2ccccc2)c2ccccc21	-17%
13	CCCCCc1nnc(NC(=O)NS(=O)(=O)c2ccc(C)cc2)s1	-18%
14	CC(C)(C)C(=O)/C=C1\NC(=O)CS1	-5%
15	COc1ccccc1N1CCN(C(=O)/C=C/c2ccc(C)cc2)CC1	-11%
16	CCCCOc1ccc(Cn2c(=O)sc3ccccc32)cc1	-11%
17	COc1ccc(OC)c(CNC(=O)CCS(=O)(=O)c2ccc3c(c2)oc(=O)n3C)c1	11%&10%

New compounds follow:
nr	SMILES	VDR inhibitor
21	COC(=O)[C@H](Cc1ccccc1)NC(=O)N1CCCCC1C (some centres not stated)	14%
22	CCOc1ccc(OCC)c(Nc2ccc3cc(S(=O)(=O)N4CCCC4)ccc3n2)c1	0%
23	CCN(CC)S(=O)(=O)c1ccc(NC(=O)CN(c2cccc(C)c2)S(C)(=O)=O)cc1	5%
24	COc1ccc2c(c1)c(C(=O)CN1CCC(C(N)=O)CC1)c(C)n2C	-9%
25	Cc1c(/C=N\NC(=O)C2COc3ccccc3O2)c2ccccc2n1C (configuration not stated)	-27%
26	CCOC(=O)CSc1nnc(Cc2ccccc2)n1Cc1ccco1	-8%
27	Cc1c(N)cc(N)cc1C(=O)O	21%
28	COc1ccc(-c2csc(NC(C)c3nc4cc(Cl)c(Cl)cc4n3CCOCCO)n2)cc1 (configuration not stated)	-12%
29	COc1ccc(CNC(=O)CCC2N=C3c4ccccc4N=C(SCc4ccc(F)cc4)N3C2=O)cc1 (configuration not stated)	3%
30	O=C(N/C(=N\O)c1ccccc1)Nc1ccc(Cl)cc1	-6%
31	CC1=C/C(=N\OS(=O)(=O)c2ccccc2)C(C)=CC1=O	-17%
32	Cc1cccc(OCCn2c(SCC(N)=O)nc3ccccc32)c1	-7%
33	C/C(=N\NC(=O)CNc1ccccc1)c1ccccc1	-5%
34	O=C(c1cc(-c2ccc(F)cc2)nc2ccccc12)N1CCN(C2CCS(=O)(=O)C2)CC1 (configuration not stated)	-5%
35	O=C(CSc1nnc2n1CCCN2)c1ccc([N+](=O)[O-])cc1	-6%
36	CC1CC(C)(C)CC2(C1)NC(=O)N(CC(=O)N1CCN(S(=O)(=O)c3cccc(Cl)c3Cl)CC1)C2=O (configuration not stated)	-13%
37	CCCCc1nc2ccccc2c(N)c1CCC (tested in a mixture with another compound)	-10%
38	CCN(CC)S(=O)(=O)c1ccc(OC)c(NS(=O)(=O)c2cccc(C(=O)O)c2)c1	-12%
39	CCOc1ccc(OCCC(=O)N2CCN(S(=O)(=O)c3cccc(F)c3)CC2)cc1	-18%
40	CN(C)c1ccc(C(O)c2cc3ccccc3s2)cc1 (configuration not stated)	-10%
41	O=C1CCCN1CCC(=O)N1CCCC(Nc2ccc(F)cc2)C1 (configuration not stated)	8%
42	COc1ccc(OCC(O)CNC(=O)/C=C/c2cccc([N+](=O)[O-])c2)cc1 (configuration not stated)	9%
43	COc1ccc(-n2ncc3c2CC(C)(C)CC3NC(=O)CSc2ccccn2)cc1 (configuration not stated)	-13%
44	Cc1ccc(C)c(NC(=O)CSc2nc3nccnc3c(=O)n2CCc2c[nH]c3ccccc23)c1	-1%
45	CC(C)C[C@H](NC(=O)[C@H](CCC(N)=O)NC(=O)[C@H](CCCCN)NC(=O)[C@H](CCC(N)=O)NC(=O)[C@@H](N)CCC(=O)O)C(=O)N[C@@H](CCC(N)=O)C(=O)O	4%
46	COc1cc(OC)c2cc(C(=O)N[C@H](C(=O)N3CCC[C@H]3C(=O)O)C(C)C)n(C)c2c1	-4%
47	C/C(Nc1ccc2oc(=O)ccc2c1)=C1/C(=O)CC2[C@@H]1C2(C)C (some centres not stated)	-30%
48	CCSc1ncc(Cl)c(C(=O)Nc2ccc(S(=O)(=O)N3CCC(C)CC3)cc2)n1	5%
49	Cc1cc(=O)oc2cc(OCC(=O)NC(Cc3c[nH]c4ccc(O)cc34)C(=O)O)c(Cl)cc12 (configuration not stated)	-19%
50	Cc1ccc(S(=O)(=O)N2CCN(C(=O)CSc3ncc(C(F)(F)F)cc3Cl)CC2)cc1	14%
51	CC(=O)c1nn(-c2ccccc2)cc1C(=O)c1cccc(Br)c1	2%
52	O=C(/C=C\Nc1ccc(Br)cc1)c1cccnc1	-4%
53	COc1ccc(N(CC(=O)N2CCN(C)CC2)S(C)(=O)=O)cc1OC	-2%
54	COC(=O)c1cc(NS(=O)(=O)c2ccc(Cl)c(N3C(=O)c4ccc(C(=O)O)cc4C3=O)c2)cc(C(=O)OC)c1	-7%
55	O=C(NCc1ccco1)c1ccc(Cn2c(=S)[nH]c3ccccc3c2=O)cc1	5%
56	C/C(=N\NC(=O)c1ccc(Cl)cc1)c1cccnc1	26%
57	CCC(Oc1ccccc1)C(=O)Nc1nnc(S(=O)(=O)N2CCCC2)s1 (configuration not stated)	4%&7%
58	CCN(CC)S(=O)(=O)c1ccc(OC)c(NC(=O)C2CC(=O)N(c3ccc4c(c3)OCCO4)C2)c1 (configuration not stated)	-5%
59	CC1CN(c2ccc(NC(=S)NNCCC#N)cc2)CC(C)O1 (configuration not stated)	1%
60	CCOc1ccccc1CNS(=O)(=O)c1ccc(-c2cnc(C3CC3)o2)cc1	0%&12%
61	CC(=O)c1ccc(NC(=S)NN2C(C)CCCC2C)cc1 (configuration not stated)	0%
62	COc1cc(OC)c2c(C)cc(=O)oc2c1C(CCN1CCOCC1)c1ccc2c(c1)OCO2 (configuration not stated)	-14%
63	O=C1c2ccccc2C(O)(Cc2ccccc2)N1C1CCCCC1 (configuration not stated)	-8%
64	CCN(CC)c1nc(N)n(CCSC(=S)N(C)C)c(=O)n1	-7%
65	CC(=O)N1c2ccc(S(=O)(=O)N3CCCCC3)cc2CC1C (configuration not stated)	10%
66	CCn1c(=O)cc(OCC(=O)NC2CC2)c2ccccc21	4%
67	Cc1ccc(S(=O)(=O)NCCC(=O)NC2CCN(Cc3ccccc3)CC2)cc1	-6%
68	CCn1nccc1C(=O)Nc1cc(Cl)cc(Cl)c1	-4%
69	CC(=O)C[C@H](O)CC(=O)[C@H]1OC(=O)[C@H](C)C/C=C\Cc2ccccc21	1%
70	COC(=O)c1ccc(CO/N=C/c2ccc(OC)cc2OC)cc1	9%

The results go on.
nr	SMILES	VDR inhibitor
71	CCCOc1cccc(C(=O)Nc2ccc(CN3CCOCC3)cc2)c1	2%
72	O=C1CC(c2ccc(F)cc2)CC2=C1C(c1ccc([N+](=O)[O-])o1)Nc1ccccc1N2 (configuration not stated)	9%
73	O=C(c1cccc(NS(=O)(=O)c2ccc(F)cc2)c1)N1CCN(c2ccccc2)CC1	27%
74	Cc1cc(C)cc(OC(C)C(=O)Nc2ccc(S(=O)(=O)Nc3cc(C)nc(C)n3)cc2)c1 (configuration not stated)	-25%
75	O=[N+]([O-])c1ccc(Nc2cccc(F)c2)nc1	-6%
76	Cc1cccn2c(=O)c3cc(C#N)c(=NC(=O)c4cccnc4)n(CC4CCCO4)c3nc12 (configuration not stated)	-7%
77	CCCCCN1CN(S(=O)(=O)c2cccs2)c2nc3ccccc3nc21	20%
78	CCCCc1nc2sc3c(=O)n(N)cnc3c2c2c1CCC2	2%
79	O=C(CC(=O)N/N=C/c1cccs1)NCc1ccccc1	1%
80	Cc1ccnn1CCC(=O)O	-5%
81	O=[N+]([O-])c1ccc(CN2CCN(c3ccc4ccccc4n3)CC2)cc1	6%
82	CC(C)CNC(=O)COC(=O)c1cncc(Br)c1	6%
83	O=C(NN=C1CCCCCC1)c1cc(-c2ccccc2)nc2ccccc12	-25%
84	CCOc1ccccc1NC(=O)c1sc(-n2nc(C)c(CCC(C)C)c2C)nc1C	-13%
85	Cc1cccc(NC(=O)CNC(=O)c2cccc(S(=O)(=O)NCc3cccs3)c2)c1C	15%
86	Cc1nc(N2CCN(C(=O)CCC(=O)O)CC2)c2c(C)c(C)sc2n1	-8%
87	CCN(CC)N=Nc1ccc(S(=O)(=O)N2CCSC2C(=O)O)cc1 (configuration not stated)	1%
88	O=C(Nc1ccnc(-c2cccnc2)n1)c1cccc(Cl)c1Cl	1%
89	Cc1ccc(-c2nnc(SCc3ccccc3F)o2)cc1	-26%
90	Cc1cc(OCC(=O)NCc2cccnc2)ccc1[N+](=O)[O-]	-24%
91	CNc1ncc(C(=O)c2ccccc2)s1	-10%
92	Cc1cc(S(=O)(=O)Nc2cccc(C(=O)O)c2)c(C)c(S(=O)(=O)c2ccc(Cl)cc2)c1	12%
93	CC1CCCCN1C(=O)COc1ccc(F)cc1 (configuration not stated)	-14%
94	CC(C)C[C@H](NC(=O)N1CCn2c1nc1ccccc12)C(=O)N[C@@H](C(=O)O)c1ccccc1	-7%
95	CCC(=O)N1CCc2cc(S(=O)(=O)NC(C(=O)Nc3cc(OC)cc(OC)c3)C(C)C)ccc21 (configuration not stated)	5%
96	O=C(CN(Cc1ccc(Cl)cc1)S(=O)(=O)c1ccccc1)NCC1CCCO1 (configuration not stated)	-8%
97	Cc1c(C(c2ccccc2O)c2c(C)n(C)n(-c3ccccc3)c2=O)c(=O)n(-c2ccccc2)n1C	0%
98	C/C=C\C(=O)Nc1cccc(C2=NOC3(C2)C[C@H](C(N)=O)N(C(=O)/C=C/CC)C3)c1 (some centres not stated)	7%
99	O=C1CCCCN1CC(=O)N1CCCC(Nc2ccc(F)c(F)c2)C1 (configuration not stated)	?
100	S=C(Nc1ccc(Cl)cc1)N1CCCCC1	-6%
101	CC[C@]12C(=O)N(C)C[C@H]([C@@H]3C(=O)N(C)C(=O)[C@@H]31)N2C(=O)c1ccc(F)cc1	1%
102	COc1cccc(Oc2nnnn2-c2ccccc2)c1	13%
103	O=C(Nc1ccc2nn(-c3ccc(F)cc3)nc2c1)c1cccc2c(Cl)cccc12	-10%
104	Cc1cc(C(=O)OCC(=O)Nc2cccc([N+](=O)[O-])c2)c(C)o1	-10%
